Source: PubChem (National Center for Advancing Translational Sciences (NCATS))
RE007 growth inh – less growth of the S. pombe RE007 Vpr strain; S. pombe RE007 Vpr strain, BacTiter-Glo ATP luminescence, 24 h; control for the full effect not named in the record; 360,000 compounds, 0.21% hits; Potency, µM (doses to about 92.2 µM), without a hit: top-dose activity change, negative = less growth; AID 651644; active = well fitted falling curve with a large enough effect; inconclusive = small, poorly fitted or top-dose-only effect; inactive = no such curve, though single readings can be large or run the other way;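 also: % is scaled to controls: 0 for no effect and ±100 for the full control effect; nearly all actives have a fitted effect of over 50% in size; the assay follows cell death caused by Vpr and the record does not say whether a fall means rescue or toxicity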
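Fission yeast RE007 carrying one integrated HIV-1 vpr copy, seeded at OD 0.01 in PMG+AL medium with 23 nL pinned compound. Grown 24 h at 30 degrees; viability read by BacTiter-Glo luminescence after 5 min.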
SARS PLP yeast – SARS-CoV PLP inhibition in yeast | S. cerevisiae expressing SARS-CoV PLpro, growth rescue; control for the full effect not named in the record | Potency, µM (doses to about 32.9 µM), inactives show at the top dose activity, positive = growth rescue | 330,000 compounds, 0.19% hits; also: 0% is about no effect; nearly all actives have a fitted effect of over 55% in size; growth read by luminescence after 48 h
Cruzain inh noDet – blocks cruzain activity in detergent-free assay; AID 1476; P25779; 200,000 compounds, 2.3% hits; Potency, µM, for inactives: max response, negative = inhibition, usual class: inhibitors; purified cruzain, Z-FR-AMC fluorescence, no detergent; active = well fitted curve in the direction sought with a large enough effect; inconclusive = small, poorly fitted or top-dose-only effect, or another doubt; inactive = no such curve, though single readings can be large; an effect the other way counts as inactive or inconclusive;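 also: plate controls were enzyme without inhibitor for no effect and buffer without enzyme for full effect; nearly all actives have a fitted effect of over 40% in size; top concentration of the series not given in the record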
Target sequence (P25779 123-467 limits assumed): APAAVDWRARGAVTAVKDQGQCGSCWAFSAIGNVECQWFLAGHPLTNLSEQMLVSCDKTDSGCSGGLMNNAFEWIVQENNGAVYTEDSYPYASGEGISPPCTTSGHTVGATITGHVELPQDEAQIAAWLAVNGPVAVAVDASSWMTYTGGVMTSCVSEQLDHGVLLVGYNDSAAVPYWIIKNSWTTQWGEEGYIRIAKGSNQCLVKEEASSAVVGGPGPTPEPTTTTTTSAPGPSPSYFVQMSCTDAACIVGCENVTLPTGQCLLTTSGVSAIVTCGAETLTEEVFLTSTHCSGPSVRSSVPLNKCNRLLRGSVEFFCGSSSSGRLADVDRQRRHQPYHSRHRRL
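Purified cruzain at 1.5 nM, pre-incubated 15 min with compound at room temperature in 100 mM sodium acetate pH 5.5, 5 mM DTT, 0.00005% Triton X-100. Reaction started with 2 uM Z-FR-AMC; AMC fluorescence increase over 60 s gives rate.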
Lassa entry inh – Lassa virus entry inhibition. Lassa virus pseudotype entry inhibition, cell reporter; control for the full effect not named in the record. 300,000 compounds, 1.2% hits. Potency, µM (top dose mostly 37.9 µM), for inactives: top-dose activity change, negative = inhibition, actives largely listed as inhibitors; active means well fitted inhibition curve with a large enough effect; inconclusive means small, poorly fitted or top-dose-only effect, or effect the other way; inactive means flat fitted curve, though single readings scatter; tested in HEK293 cells; also: % is scaled to controls: 0 for no effect and ±100 for the full control effect; nearly all actives have a fitted effect of over 50% in size; luciferase read-out
Cruzain Triton – inhibitors of Trypanosoma cruzi cruzain with detergent. Potency, µM, for inactives: max response, negative = inhibition, most hits filed as inhibitors. purified cruzain, Z-FR-AMC fluorescence, 0.01% Triton. 200,000 compounds, 0.43% hits. P25779; active = well fitted curve in the direction sought with a large enough effect; inconclusive = small, poorly fitted or top-dose-only effect, or another doubt; inactive = no such curve, though single readings can be large; an effect the other way counts as inactive or inconclusive;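 also: plate controls were neutral wells for no effect and buffer without enzyme for full effect; nearly all actives have a fitted effect of over 40% in size; top concentration of the series not given in the record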
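Detergent-containing run (0.01% Triton X-100) in acetate buffer pH 5.5 with 5 mM DTT: enzyme at 1.5 nM final, 15 min compound preincubation at room temperature, then 2 uM Z-FR-AMC substrate. Activity taken as 60 s fluorescence increase at 360/450 nm.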
NS1 function inh – inhibitors of influenza NS1 protein function | AID 2326 | S. cerevisiae slowed by influenza A NS1, growth recovery by OD600 | Potency, µM (highest dose often 46.1 µM), without a hit: top-dose activity, positive = more growth | 270,000 compounds, 0.4% hits; also: actives are rising curves; nearly all actives have a fitted effect of over 50% in size
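Growth recovery, yeast-based: influenza A NS1 expressed in S. cerevisiae causes slow growth, and suppressors are detected by OD600. The parent strain without NS1 is used as positive control.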
StopGo reporter – lowers the luciferase signal of an FMDV 2A StopGo reporter; human cells with a luciferase reporter of 2A StopGo recoding; control for the full effect not named in the record; Potency, µM (series often up to 57.9 µM), without a hit: at the top dose signal change, negative = less light; 410,000 compounds, 1.2% hits; active = well fitted falling curve with a large enough effect; inconclusive = small, poorly fitted or top-dose-only effect; inactive = no such curve, though single readings can be large or run the other way; tested in HEK293T cells; also: % is scaled to controls: 0 for no effect and ±100 for the full control effect; nearly all actives have a fitted effect of over 45% in size; luciferase light after 4 h
MARV entry inh – inhibitors of Marburg virus binding or cell entry; Marburg virus pseudotyped entry inhibition, cell reporter; control for the full effect not named in the record; about a third of the inactives were read at about 46 µM; Potency, µM (titrated, usually from 37.8 µM), for the others: top-dose activity change, negative = inhibition, usual class: inhibitors; 300,000 compounds, 1.8% hits; AID 540276; active = well fitted inhibition curve with a large enough effect; inconclusive = small, poorly fitted or top-dose-only effect, or effect the other way; inactive = flat fitted curve, though single readings scatter; tested in HEK293 cells; about a fifth of its hits are not listed in these tables; also: % is scaled to controls: 0 for no effect and ±100 for the full control effect; luciferase read-out
The depositor's hits bear a star; ? = inconclusive; . = not tested or not shown; & = joins results of further samples; [ ] = another dose, or the depositor's remark. Unless noted, calls follow the shape of the dose curve; as a rule, active means well fitted rising curve with a large enough effect; inconclusive means small, poorly fitted or top-dose-only effect; inactive means no such curve, though single readings can be large or run the other way. Potency is read from the fitted curve at half-maximal effect.

SMILES	RE007 growth inh	SARS PLP yeast	Cruzain inh noDet	Lassa entry inh	Cruzain Triton	NS1 function inh	StopGo reporter	MARV entry inh
O=C(c1ccco1)N1CCN(Cc2cc(=O)c(OCc3ccc(F)cc3)co2)CC1	4%	-1%	.	2%	.	.	-1%	10%[46.1 µM]
CNC(=O)c1ccccc1NC(=O)C1CC(=O)N(c2ccc(OC)cc2)C1 (stereo not drawn)	-7%	1%	.	0%[46.1 µM]	.	4%	11%	9%[46.1 µM]
Cc1ccc(-n2nnnc2-c2cnc3ccc(Cl)cc3c2-c2ccccc2)cc1	10%	13%	1%	?	-1.2%	13%	-1%	?
CC(C)n1nnnc1SCC(=O)N1N=C(c2cccs2)CC1c1cccs1 (stereo not drawn)	31%	-5%	.	5%	.	.	26%	3%
c1coc(-c2nnc3sc(Cc4cccs4)nn23)c1	12%	-6%	-18%	-8%	-6.7%	-6%	28%	13%&13%
CCOP(=O)(OCC)C(NC(=O)Nc1ccc(Cl)c(Cl)c1)c1ccccc1 (stereo not drawn)	8%	12%	4%	?	-11%	-8%	-18%	?
CNS(=O)(=O)c1cccc(C(=O)NCC(c2ccco2)N(C)C)c1 (stereo not drawn)	10%	6%	.	22%	.	25%	1%	4%[46.1 µM]
COc1ccccc1N(C)S(=O)(=O)c1ccc(C)c(C(=O)NC(C)c2ccccn2)c1 (stereo not drawn)	-7%	1%	.	-6%	.	.	-5%	?
CC(C)CCOP(=O)(c1ccc(N(C)C)cc1)C(O)c1ccccc1F (stereo not drawn)	19%	1%	?	-15%	-2.6%	-4%	6%	?
CC(C)Cc1cc(C(=O)N2N=C(C(F)F)CC2(O)C(F)F)c2ccccc2n1 (stereo not drawn)	5%	-6%	23%	-9%	-7.5%	-31%	-21%	-30%
Cc1cc(C)[n+](-c2ccc(F)cc2)c2[nH]c(=O)[nH]c(=O)c12	3%	-24%	-2%	6%	-16%	6%	8%	9%
CC(C)[C@H](NC(=O)N1CCn2c1nc1ccccc12)C(=O)N1CCCCC1	10%	1%	.	.	.	-12%	-21%	.
O=S1(=O)Cc2cc3ccccc3cc2C1	-16%	0%	.	?	.	1%	-11%	17%[46.1 µM]
C=C(C)C1Cc2c(C)nn(-c3cccc4cccnc34)c2C1 (stereo not drawn)	-2%	-1%	.	.	.	-3%	?	.
CCCc1cc(=O)n2[nH]c(NCc3ccccc3Cl)nc2n1	-15%	4%	3%	-6%	1.7%	0%	3%	-4%
O=C(O)c1c(-c2ccccc2)nnc2ccccc12	-1%	-1%	.	.	.	2%	3%	.
COc1ccc(NC(=O)C2CC(c3ccccc3Cl)=NO2)cc1 (stereo not drawn)	-12%	-5%	.	14%	.	-15%	62%[activator]	?
COc1ccc(C2NCc3ccc4c(c3-n3cccc32)OCO4)cc1OC (stereo not drawn)	-6%	3%	-7%	-28%	-2.9%	0%	-21%	?
O=C(CCc1nnc2n(Cc3ccccc3Cl)c(=O)c3ccccc3n12)Nc1ccc(F)c(F)c1	.	.	1%	.	1.0%	.	-21%	14%[46.1 µM]
COCc1cc(C)nc2sc(C(=O)Nc3ccccc3Br)c(N)c12	10%	-4%	.	19%[46.1 µM]	.	9%	14%	3%[46.1 µM]
COc1ccc(NC(C)=O)cc1NC(=O)CSc1nnc(-c2ccccc2)n1N	-22%	.	1%	-17%	4.1%	0%	3%	24%
NC(=O)[C@@H]1CCCNc2c(I)cc([N+](=O)[O-])cc2C(=O)N[C@@H](Cc2ccccc2)C(=O)N[C@@H](Cc2cnc[nH]2)C(=O)N1	8%	2%	-8%	3%	-4.2%	3%	-3%	0%
O=C(CCCCCCCC(=O)N1CCCCCC1)N1CCCCCC1	25%	.	.	-18%	.	.	-13%	-8%
O=C(C1CCCO1)N1CCN(S(=O)(=O)c2cc(F)ccc2F)CC1 (stereo not drawn)	5%	3%	.	-11%	.	15%	-6%	?
CCCCCOC(=O)CSc1nc2sc3c(c2c(=O)n1Cc1ccccc1)CC(C)(CC)OC3 (stereo not drawn)	.	.	-6%	-15%[46.1 µM]	-4.2%	.	-3%	.
Cc1ccc(S(=O)(=O)N2CCN(C(=O)Cc3ccccc3)CC2)cc1	-11%[3.69 µM]	7%	1%	-18%	3.6%	-7%	-20%	-9%
CCCCn1c(N)c(N(CCOC)C(=O)C2CCN(S(=O)(=O)c3ccccc3)CC2)c(=O)[nH]c1=O	-21%	-8%	.	-1%	.	.	-9%	2%
CC(C)(C)N=Cc1cc(-c2ccccc2)sc1O	17%	-2%	-5%	0%	-0.4%	-8%	58%[activator]	?
CC(C)(C)OC(=O)N[C@@H](Cc1ccccc1)c1nnc(SCC(=O)O)o1	6%	2%	-13%	18%	25µM*	4%	14%	20%
CCCOc1ccc(CNC(=O)C2CCN(c3nnc(N4CCCC4=O)s3)CC2)cc1	-13%	3%	.	.	.	15%	-24%	.
CCn1ccc2cc(S(=O)(=O)N3CCCN(C(=O)Nc4ccccc4OC)CC3)ccc21	.	.	-10%	-13%[46.1 µM]	-3.8%	.	-1%	.
COCc1ccc(C(=O)NC2CC(C)(C)Cc3c2cnn3-c2ccc(OC)cc2)o1 (stereo not drawn)	13%	?	.	-13%[46.1 µM]	.	-3%	-19%	-9%[46.1 µM]
OCC1(CCCc2ccccc2)CCN(C2CCC2)CC1	-1%	0%	.	.	.	-1%	-19%	.
COc1ccc(N(CC(=O)NCCSCc2ccccc2C)S(=O)(=O)c2ccccc2)cc1	2%	?	.	?	.	7%	-17%	?
O=C(OCC(=O)N1CCCc2ccccc21)c1cccc(S(=O)(=O)N2CCOCC2)c1	18%	4%	.	2%[46.1 µM]	.	.	9%	11%
CCN(CC)S(=O)(=O)c1ccc(N2CCOCC2)c(NC(=O)C2CCCC2)c1	-7%	-3%	-1%	-5%	-2.2%	19%	-14%	17%
CC(C)(C)n1nnc(CCc2nnn(C(C)(C)C)n2)n1	17%	0%	8%	4%	4.2%	8%	-17%	18%
CC1=C(C(=O)Nc2ccccc2)C(c2ccc(Cl)cc2)n2c(s/c(=C/c3cccc(OCC(=O)O)c3)c2=O)=N1 (stereo not drawn)	-21%	-4%	.	1%[46.1 µM]	.	11%	16%	-10%
COCCNS(=O)(=O)c1ccc(C2CNC(=O)C2)cc1 (stereo not drawn)	19%	1%	-2%	.	2.7%	1%	-15%	-8%
COCCNC(=O)c1onc(CSc2ccc(C(C)C)cc2)c1C(=O)O	5%	-3%	13%	.	-3.5%	2%	0%	.
Cc1ccc(S(=O)(=O)c2nc(-c3ccccc3Cl)oc2N(C)C2CCN(C)CC2)cc1	1%	3%	.	?	.	.	36%[activator]	?
O=S(=O)(Nc1cccc(CCc2ccccn2)c1)c1ccc2ccccc2c1	-6%	-11%	14%	9%	0.3%	-31%	11%	-1%
Cc1ccc(N(C(=O)C2CCCC2)C2C=CS(=O)(=O)C2)cc1C (stereo not drawn)	4%	2%	-4%	12%	0.7%	?	.	5%
COCCn1cnc2c1c(=O)n(Cc1cc(C(C)=O)ccc1OC)c(=O)n2Cc1ccccc1	1%	2%	.	-28%[46.1 µM]	.	-3%	0%	?
COCCNC(=O)c1ccc(-n2c(-c3ccccc3)cc3c2CCC(C)C3)cc1 (stereo not drawn)	.	.	22%	3%[46.1 µM]	-1.1%	.	0%	.
Cc1ccc2occ(/C=N/NC(=O)c3ccc(Cl)cc3)c(=O)c2c1	-4%	-6%	.	0%	.	4%	-17%	11%
CC(=O)N1CCOc2ccc(S(=O)(=O)NCc3ccc(F)cc3)cc21	1%	-1%	.	.	.	-10%	42%[activator]	.
COc1ccc(-c2noc(C3CC(=O)N(c4ccc(C)c(F)c4)C3)n2)c(OC)c1 (stereo not drawn)	.	.	?	1%[46.1 µM]	-8.6%	.	0%	.
Cc1nc(NC(=S)NC(=O)COc2ccc(Cl)cc2)ccc1Br	-17%	6%	?	7%	0.5%	15%	-19%	?
Cn1ccnc1P(=S)(c1nccn1C)N1CCOCC1	5%	7%	-1%	6%	2.3%	1%	-4%	16%
O=C(c1cccn2c(=O)c3ccccc3nc12)N1CCN(c2ccccn2)CC1	-7%	-1%	-11%	1%	-3.3%	-2%	14%	-17%
COCCN(C(=S)Nc1cccc(Cl)c1C)C(C)c1ccco1 (stereo not drawn)	-5%	16%	.	?	.	-42%	6%	-28%[46.1 µM]
Cc1cc2c(ncn2Cc2ccccc2)c(N)c1C	-7%	0%	.	0%	.	.	-10%	?
CCOC(=O)CCCn1ccc2cc(S(=O)(=O)N3CCCC3)ccc21	-2%	-2%	.	.	.	-5%	0%	.
C=CCn1c(-c2ccccc2)nc(=S)c2c1CCCC2	-13%	5%	.	6%	.	3%	-2%	-23%[46.1 µM]
Cc1ccc(-c2cc(C(=O)N3CC(C)CC(C)C3)c3ccccc3n2)o1 (stereo not drawn)	1%	-5%	.	?	.	-7%	-3%	?
COc1cc(C(=O)Nc2nnc(S(=O)(=O)N3CCCCCC3)s2)cc(OC)c1OC	5%	1%	.	1%[46.1 µM]	.	30%	0%	18%[46.1 µM]
CCc1ccc2nc(N3CCN(C)CC3)c(C#N)cc2c1	3%	4%	11%	9%	1.6%	2%	43%[activator]	-21%[46.1 µM]
Cc1ccc(NC(=O)Cn2cc(S(=O)(=O)c3ccc(F)cc3)c(=O)c3cc(F)ccc32)cc1	3%	-1%	-9%	-1%	-1.7%	?	6%	0%
CC(C)OP(=O)(OC(C)C)C1(NS(=O)(=O)c2ccc(Cl)cc2)C=C(Cl)C(=O)C(Cl)=C1	-8%	2%	.	.	.	-26%	-26%	.
